Screening data from PubChem BioAssay.
HIV Env fusion: blocks HIV Env-driven cell-cell fusion | inhibition, % at 12.3 µM | HeLa-JRFL Env/CEM21 cell fusion, luciferase | AID 651610 | 1.1% of 360,000 active;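 active = mean replicate inhibition score of at least 50 and every replicate individually at or above 50; inconclusive = only one of the two criteria met; inactive = mean below 50 and not all replicates reaching 50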;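 also: 0% = plate neutral controls and 100% = maraviroc near 300 nM; one replicate is shown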
UUG fidelity: yeast start codon fidelity modulation. S. cerevisiae UUG-firefly luciferase reporter, luminescence/redox ratio. activity score, % at 18.7 µM. 0.13% of 350,000 active;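 active = replicate mean at a twofold rise or more, about +100% in these data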;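 also: firefly luciferase made from a UUG start codon reports start codon fidelity; reporter light over untreated wells divided by growth signal over untreated wells; some hits fall short of that in this replicate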
CSC inhib: blocks cancer stem cells. cancer stem cell-like cells viability, luminescence. inhibition, % at 7.5 µM. 1.1% of 300,000 active. AID 2717;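 active = mean at 75% or more and at least half the replicates too; inconclusive = mean and replicates disagree; tested in HMLE shEcad cells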;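 also: 0% = median of negative and 100% = median of positive control wells; the first replicate is given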
PABP polyA inh: PABP-poly(A) binding inhibition; AID 2014; inhibition, % at 35 µM; 1% of 290,000 active; PABP-poly(A) RNA binding, fluorescence polarization;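 active = 50% or more with normal probe brightness, or confirmed in later tests; inconclusive = above 50% with abnormal brightness, or retests that disagree; inactive = below 50% or failed in later tests; about a fifth of its hits are not listed in these tables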;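 also: calls also rest on retests at 20 µM and on dose response follow-up; controls were probe without protein and protein plus probe with vehicle; some compounds called inactive have numbers as strong as hits; many hits fall short of the cut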
Rce1 inhib: inhibitors of yeast Ras-converting enzyme | Q03530 | yeast membranes, quenched prenylated peptide cleavage fluorescence | calls only | 0.27% of 290,000 active | AID 2563;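 active = fall in fluorescence gain of 50% or more versus controls, with final raw signal at or below 3038400; inconclusive = same 50% fall but final raw signal above 3038400; inactive = fall in fluorescence gain under 50%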;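 also: plate controls were neutral control wells for no effect and wells lacking membranes for full effect; tested at 10 µM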
Target sequence (Q03530 whole entry, looked up): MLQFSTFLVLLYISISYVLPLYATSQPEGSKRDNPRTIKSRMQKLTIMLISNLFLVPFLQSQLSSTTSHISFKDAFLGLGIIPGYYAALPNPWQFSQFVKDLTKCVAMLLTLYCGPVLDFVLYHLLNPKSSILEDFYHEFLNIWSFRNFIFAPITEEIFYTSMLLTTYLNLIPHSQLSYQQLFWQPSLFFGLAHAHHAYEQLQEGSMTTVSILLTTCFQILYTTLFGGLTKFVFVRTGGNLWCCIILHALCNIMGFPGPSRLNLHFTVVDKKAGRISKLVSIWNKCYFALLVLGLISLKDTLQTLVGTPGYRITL
MT1-MMP act inh: MT1-MMP (human) activation inhibition | GFP/RFP ratio change, % at 20 µM | 0.061% of 360,000 active | P50281 | HT1080 RFP-PRO-GFP cells, GFP/RFP ratio fluorescence, overnight; percent of plate control window, DMSO zero | AID 651647;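 active = GFP/RFP ratio change of at least 30% with cell ATP level not reduced by more than half and red fluorescence within 50% of control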; also: strong numbers were not always called active
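Assay system: RFP-PRO-GFP reporter HT1080 cells; read-out basis: GFP/RFP fluorescence ratio; benchmarks: DMSO wells and RFP-L50D-GFP cells; doses: 20 µM single dose, 1% DMSO; schedule: overnight cell settling, then overnight compound exposure, 37 °C, 5% CO2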
eIF4H FP inh: inhibitors of RNA binding by human eIF4H; Q15056; eIF4H fluorescence polarization binding assay; inhibition, % at 35 µM; 0.94% of 290,000 active;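 active = 50% or more with normal probe brightness, or confirmed in later tests; inconclusive = above 50% with abnormal brightness, or retests that disagree; inactive = below 50% or failed in later tests; about a fifth of its hits are not listed in these tables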;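 also: calls also rest on retests at 20 µM and on dose response follow-up; 0% = protein and probe with vehicle and 100% = probe without protein; strong numbers were not always called active; many hits fall short of the cut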
eIF4H FP inh retest: further read-out of eIF4H FP inh, marked with its call; inhibition, %; compound at 20 µM; confirmation average;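 mean of two retest wells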
PABP polyA inh retest: recorded beside PABP polyA inh, whose call it bears; inhibition, %; compound at 20 µM; confirmation repeats;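 mean of two retest wells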
MT1-MMP act inh RFP: recorded beside MT1-MMP act inh, whose call it bears; RFP signal change, %; measured here: RFP expression control read;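 0 = vehicle wells; hits needed this value within 50% of zero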
* hit, by the source's call; i = inactive; ? = inconclusive; . = not tested or not shown; & = joins results of further samples.

SMILES | HIV Env fusion | UUG fidelity | CSC inhib | PABP polyA inh | Rce1 inhib | MT1-MMP act inh | MT1-MMP act inh RFP | eIF4H FP inh | others
CCn1c(=S)[nH]c2scc(-c3cccs3)c2c1=O | -6 | . | . | -8 | i | 1 | 5 | 12
COc1ccc(-c2csc(Nc3ncccc3C)n2)cc1 | . | -31 | -1 | -6 | i | 0 | -3 | -10
CCC(=O)Nc1ccc(C(=O)NCCCn2ccnc2)cc1 | -45 | . | 0 | 4 | i | 0 | -1 | -5
O=C(CNC(=O)c1ccc(Cl)cc1Cl)OCC(=O)N1CCN(c2ccccc2)CC1 | -10 | -1 | -18 | -6 | i | -2 | -2 | -11
Cc1nc2ccc(-c3nc4ccccc4o3)cc2[nH]1 | -423 | -31 | 6 | 0 | . | 6 | 0 | -2
O=C(c1ccc(O)cc1)c1ccc(C(=O)c2ccc(O)cc2)cc1 | -7 | 0 | 19 | 3&1 | i | -13 | -4 | 6&1
COC(=O)C1CSC(C(=O)OC)N1C(=O)Nc1ccc(Cl)cc1 (stereo not given) | . | -14 | 2 | -5 | i | 0 | 7 | 9
C=CCOC(=O)c1c(C)nc2cc3c(cc2c1C)OCO3 | 16 | . | -7 | 22 | i | 1 | 2 | 10
CC1CC(C)C[N+](=C2C=C(N3CCCC3)CC(C)(C)C2)C1 (stereo not given) | 46 | . | . | 2 | i | -14 | -33 | -11
CN(C)c1ccc(CN(C(=O)c2ccc(Cl)c([N+](=O)[O-])c2)C2CCS(=O)(=O)C2)cc1 (stereo not given) | 9 | . | -3 | -7 | i | -3 | 2 | 5
Cc1cc(C(=O)Nc2ccncc2)c2ccccc2n1 | 5 | -15 | -10 | -5 | i | -4 | 3 | 2
Cc1cc(NC(=O)CS(=O)(=O)c2c[nH]c3ccccc23)no1 | -4 | -9 | 3 | 0 | i | -4 | 4 | 8
COC(=O)CSc1nnc(-c2cnccn2)n1C | -25 | -16 | . | 2 | i | 5 | -1 | -4
COc1cc(Cl)c(CNC[C@H]2O[C@@H](n3cnc4c(N)ncnc43)[C@H](O)[C@@H]2O)c(Cl)c1O | -17 | -15 | . | . | . | 0 | 4 | .
COc1ccccc1CNc1nc(S(=O)(=O)c2ccccc2)c(Cl)s1 | 7 | -6 | 3 | 3 | i | 2 | -3 | -4
C=CCOc1ccccc1CN1CCN(CCc2ccccc2)C(CCO)C1 (stereo not given) | 1 | -10 | 24 | -6 | i | 1 | -1 | 5
COc1ccccc1CC(=O)N1CCN(c2ccccn2)CC1 | . | -24 | 4 | 7 | i | 8 | 5 | -8
COc1ccc(CNC(=O)CN(CC2CCCO2)C(=O)CNS(=O)(=O)c2ccccc2)cc1 (stereo not given) | . | -12 | -3 | -7 | i | 1 | 2 | -4
O=C(CN1N=C(C(F)(F)F)CC1(O)c1ccc([N+](=O)[O-])cc1)c1ccccc1 (stereo not given) | -167 | 4 | -9 | 6 | i | 2 | -2 | 5
COC(=O)C1CCN(C(=O)C2CC(=O)N(c3ccc(C)c(Cl)c3)C2)CC1 (stereo not given) | -7 | -10 | . | . | . | 2 | 4 | .
CN(C1=NS(=O)(=O)N=C(N(C)c2ccccc2)O1)c1ccccc1 | -9 | -19 | . | . | . | 0 | -2 | .
O=C(Nc1ccc(F)cc1)c1cc2cc(Cl)ccc2[nH]1 | 35 | 17 | -5 | 32 | i | 3 | -4 | 0
O=C1OC[C@@H]2CCCN2C(=O)[C@H](CC(=O)N(CCO)Cc2ccccc2)C/C=C\CC[C@H]1Cc1ccc(F)cc1 | -32 | -4 | -7 | . | . | 2 | 3 | .
CCCCc1ccc(C2C3=C(CC(C)(C)CC3=O)NC3=C2C(=O)c2ccccc23)cc1 (stereo not given) | . | 3 | 26 | -4 | i | -26 | -43 | -16
CN(C[C@@H](CC1CCCCC1)N(C[C@H](Cc1ccccc1)N(CCc1ccccc1)N=O)N=O)N=O | 84* | -16 | 5 | -1 | i | -8 | -12 | -9
N#Cc1cccc(NC(=O)Cn2cnc(S(=O)(=O)N3CCOCC3)c2)c1 | . | 10 | -9 | 1 | i | 3 | 4 | 0
Cc1ccc(OCC(=O)N(Cc2ccccc2)c2ccccn2)cc1 | 16 | . | -15 | -20 | i | -3 | -1 | -17
O=C(COc1cccc(-n2cnnn2)c1)Nc1ccc([N+](=O)[O-])cc1 | 4 | -15 | 5 | 5 | i | -3 | -2 | -5
O=C(CNC(=O)c1ccccc1)NCC(=O)OCc1ccccc1Cl | 24 | . | -8 | -5 | i | 2 | 6 | -1
COc1ccc(-c2csc3ncnc(N4CCN(S(=O)(=O)c5ccc(C)cc5)CC4)c23)cc1 | 63* | . | . | . | i | -11 | -10 | .
Cc1c(N2C(=O)C(C)SC23C(=O)Nc2ccccc23)c(=O)n(-c2ccccc2)n1C (stereo not given) | -68 | -25 | -11 | -9 | i | -1 | 2 | 4
Cn1c(N)c(C#N)c(C#N)c1-c1ccccc1 | . | -22 | -3 | . | . | -6 | -7 | .
CSc1ncccc1C(=O)N(C)CC(=O)Nc1cccc(F)c1 | -3 | -4 | -2 | 8 | i | 3 | 2 | 0
CCCCNC(=O)C(NC(=O)c1cccnc1)C(=O)c1ccccc1 (stereo not given) | -9 | -17 | . | . | . | 1 | 3 | .
COc1cc(C(=O)N=c2sc3c(C)ccc(OC)c3n2C)cc(OC)c1OC | -11 | . | 41 | -13 | i | 0 | -2 | -12
Cc1cccc(N2CCN(C(=O)CN3C(=O)NC4(CCCCCC4)C3=O)CC2)c1C | 12 | -1 | . | . | . | 1 | -10 | .
CC[C@H](C)[C@H](NC(N)=O)C(=O)NNC(=O)c1ccc(COc2cccc3cccnc23)cc1 | 2 | -27 | -14 | 2 | i | -2 | 0 | -5
COc1ccc(CNC(=O)CSc2ncnc3ccccc23)cc1OC | 0 | . | -15 | -13 | i | -5 | 2 | -4
COc1ccccc1/C=C1/C(=O)N(c2ccc([N+](=O)[O-])cc2)N=C1C | -2 | -18 | 2 | 5 | i | 2 | -5 | -10
COc1ccc(-c2cn(Cc3ccc(C(=O)c4ccccc4)cc3)nn2)cc1 | -159 | . | 51 | -4 | i | . | . | -9

Entries above with a Cl atom, in the order listed:
SMILES | HIV Env fusion | UUG fidelity | CSC inhib | PABP polyA inh | Rce1 inhib | MT1-MMP act inh | MT1-MMP act inh RFP | eIF4H FP inh | others
O=C(CNC(=O)c1ccc(Cl)cc1Cl)OCC(=O)N1CCN(c2ccccc2)CC1 | -10 | -1 | -18 | -6 | i | -2 | -2 | -11
COC(=O)C1CSC(C(=O)OC)N1C(=O)Nc1ccc(Cl)cc1 (stereo not given) | . | -14 | 2 | -5 | i | 0 | 7 | 9
CN(C)c1ccc(CN(C(=O)c2ccc(Cl)c([N+](=O)[O-])c2)C2CCS(=O)(=O)C2)cc1 (stereo not given) | 9 | . | -3 | -7 | i | -3 | 2 | 5
COc1cc(Cl)c(CNC[C@H]2O[C@@H](n3cnc4c(N)ncnc43)[C@H](O)[C@@H]2O)c(Cl)c1O | -17 | -15 | . | . | . | 0 | 4 | .
COc1ccccc1CNc1nc(S(=O)(=O)c2ccccc2)c(Cl)s1 | 7 | -6 | 3 | 3 | i | 2 | -3 | -4
COC(=O)C1CCN(C(=O)C2CC(=O)N(c3ccc(C)c(Cl)c3)C2)CC1 (stereo not given) | -7 | -10 | . | . | . | 2 | 4 | .
O=C(Nc1ccc(F)cc1)c1cc2cc(Cl)ccc2[nH]1 | 35 | 17 | -5 | 32 | i | 3 | -4 | 0
O=C(CNC(=O)c1ccccc1)NCC(=O)OCc1ccccc1Cl | 24 | . | -8 | -5 | i | 2 | 6 | -1

Next results.
SMILES | HIV Env fusion | UUG fidelity | CSC inhib | PABP polyA inh | Rce1 inhib | MT1-MMP act inh | MT1-MMP act inh RFP | eIF4H FP inh | others
[O-]C1=N[N+](=C(c2ccccc2)c2ccccc2)C1 | -4 | -20 | . | . | . | 1 | 3 | .
CN(CCC#N)C(=O)COC(=O)c1c2c(nc3ccccc13)/C(=C/c1ccco1)CC2 | 7 | -7 | 4 | 6 | i | 0 | 4 | 95* | eIF4H FP inh retest=57*;PABP polyA inh retest=36
COc1ccc(C2NCCn3cccc32)cc1 (stereo not given) | -31 | -9 | -6 | 7 | i | -4 | -1 | 22
CC1CCN(C(=O)CN2C(=O)C(=O)N(C)C2=O)c2ccccc2S1 (stereo not given) | -1 | 4 | . | . | . | 3 | 3 | .
O=C(CC1C(=O)NCCN1Cc1c(F)cccc1Cl)NCCCn1ccnc1 (stereo not given) | 7 | . | -19 | -1 | i | 2 | 9 | -1
C/C(=C\C(=O)c1ccccc1)Nc1ccc2c(c1)OCO2 | -6 | . | 15 | 5 | i | 1 | 8 | 6
CC1CCN(C(=O)COC(=O)C2CCN(S(=O)(=O)c3c(Cl)cccc3Cl)CC2)CC1 | -7 | -3 | . | . | . | 4 | 2 | .
COc1ccc(C(=O)C2CCCN(Cc3cccn3-c3nccs3)C2)cc1F (stereo not given) | 12 | -13 | 2 | -4 | i | 3 | 0 | -1
O=c1[nH]nc(SCc2nnc(-c3cccc(Cl)c3)o2)n1C1CCCCC1 | ? | 4 | -17 | -4 | i | -1 | -20 | 6
Oc1ccccc1/C=N/Nc1nccnc1Cl | ? | -47 | 88* | 14 | i | -5 | -4 | 6
CCCNC(=S)N1CCC(NC(=O)C2CCCCC2)CC1 | 19 | -24 | -17 | -16 | i | 3 | 6 | -7
Cc1ccc(F)cc1C(=O)N1CCCCC1c1cc(C(=O)NCc2ccccc2)no1 (stereo not given) | -1 | -5 | . | . | . | -2 | -3 | .
COc1ccc(C(=O)C[n+]2ccccc2C)cc1 | 1 | . | -12 | -2 | i | 2 | 7 | 1
C=CCSc1nnc(CNC(=O)c2ccc(Cl)cc2)n1CC | -10 | . | -8 | -4 | i | 0 | 2 | -2
COC(=O)Cc1ccc(NC(=S)N2CCN(c3ccc(OC)cc3)CC2)cc1 | 4 | -13 | -2 | 8 | i | 3 | -1 | -1
COc1cc(Cl)c(C)cc1NC(=O)CCCN1C(=O)CCC1=O | -22 | -4 | -13 | 3 | . | 1 | 1 | -12
CC(C)c1ccc(NC(=O)COc2ccccn2)cc1 | -29 | . | -7 | 4 | i | 2 | 0 | 2
CC(C)NCC1CCc2cc(CO)c([N+](=O)[O-])cc2N1 (stereo not given) | -14 | 5 | -12 | 13 | i | 1 | 6 | 6
O=C(NCc1ccc(Cl)cc1)c1ccc(CSc2nc3ccncc3[nH]2)cc1 | 4 | -12 | 27 | 1 | i | -1 | -15 | 1
CN(C)Cc1cc(C(F)(F)F)ccc1C(O)(c1ccccc1)c1ccccc1 | 27 | -21 | . | . | . | 4 | -4 | .
CCC1([N+](=O)[O-])COC(c2ccc(C)cc2)OC1 (stereo not given) | 9 | -1 | . | . | . | 0 | -1 | .
CCOC(=O)COc1ccccc1/C=N\NC(=O)c1cc2c(ccc3ccccc32)o1 | -10 | -18 | -9 | 19 | i | -2 | 3 | 7
